Screening results: PubChem, National Center for Advancing Translational Sciences (NCATS)
HPGD inh – inhibitors of human 15-hydroxyprostaglandin dehydrogenase (HPGD) | Potency, µM, inactives show at the highest dose activity change, negative = inhibition, actives largely listed as inhibitors | actives 4.3% (n = 150,000) | AID 894 | purified HPGD, NADH fluorescence kinetic, PGE2 substrate | P15428; active = well fitted inhibition curve with a large enough effect (not every such curve was filed as active); inconclusive = small, poorly fitted or top-dose-only effect, or another doubt; inactive = no such curve, though single readings can be large or run the other way;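 further: top concentration of the series not given in the record; plate controls included wells without enzyme; inactives centre near -10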
Target sequence (P15428 whole entry, looked up): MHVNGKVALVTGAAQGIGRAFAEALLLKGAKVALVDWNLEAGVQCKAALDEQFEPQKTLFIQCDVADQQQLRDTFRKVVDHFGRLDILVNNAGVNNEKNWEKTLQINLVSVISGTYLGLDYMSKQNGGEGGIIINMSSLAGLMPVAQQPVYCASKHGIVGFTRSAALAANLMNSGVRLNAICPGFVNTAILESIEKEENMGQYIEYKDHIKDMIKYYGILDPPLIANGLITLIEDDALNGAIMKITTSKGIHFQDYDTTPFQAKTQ
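20 nM HPGD preincubated 15 min at room temperature with compound in 50 mM Tris-HCl pH 8, 0.01% Tween 20. Started with 1 mM NAD+ and 30 uM prostaglandin E2; NADH fluorescence (360/450 nm) read 5 times over 30-s intervals, last minus first.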
* = called active by the depositor; ? = inconclusive; & = joins results of further samples. On the % scale 0 is the no-effect control and ±100 the full control effect; potency means the concentration at half of the fitted maximal effect. Only part of the results is shown; count on the stated rates, not on these rows.

HPGD inh	SMILES
-11.9%	O=c1c2ccccc2cnn1Cc1n[nH]c(=S)n1-c1ccccc1
?	Clc1ccc2nc(-c3ccccc3)[nH]c2c1
-8.1%	COc1ccc(NC(=S)N2CCN(c3ccccn3)CC2)cc1
-27.7%	Cc1noc(C)c1CSc1nc2ccccc2n1CCc1ccccc1
-13.9%	N#C/C(=C\c1ccc(-c2ccccc2[N+](=O)[O-])o1)C(=O)Nc1nc(-c2cccs2)cs1
-14.5%	O=c1c2ccccc2cnn1CCOc1ccccc1
-5.0%	COc1cccc(C(C2=C(O)CC(C)(C)CC2=O)C2C(=O)CC(C)(C)CC2=O)c1 (configuration not stated)
-4.6%	CCOC(=O)c1cnc2c(C)c(Cl)ccc2c1N1CCOCC1
-13.7%	CCSc1nnc(C)c2ccccc12
-10.8%	CCCN1Cc2cccc(C(=O)Nc3ccc4c(c3)OCO4)c2C1=O
-9.1%	Nc1c(C(=O)Nc2ccccc2F)sc2nc(Cc3ccccc3)cc(C(F)(F)F)c12
-11.0%	CCN(CC)C(=O)c1oc2ccc(S(=O)(=O)N3CCCCCC3)cc2c1C
-3.9%	COc1cccc(-n2c(SCC(=O)O)nnc2-c2cccnc2)c1
-13.7%	O=C(CSc1nnc(Nc2ccccc2F)s1)c1cc2ccccc2o1
?	Cc1cc(Cl)cc(Cl)c1OCCOc1cccc2cccnc12
?	COc1ccc(C2=NOC(C(=O)NCC(C)C)C2)cc1 (configuration not stated)
-6.6%	Cc1cc(S(=O)(=O)NCCCN2CCOCC2)ccc1F
-19.2%	COc1cccc(-c2cc(C(=O)Nc3cccc(O)c3)no2)c1
-3.9%	O=C(C1CCN(S(=O)(=O)c2cccnc2)CC1)N1CCN(C2CCCC2)CC1
-7.2%	O=C(CN1C(=O)c2ccccc2C1=O)N1CCN(C(=O)c2ccco2)CC1
?	CC(=O)c1cccc(NC(=O)c2ccc3c(Cl)c4c(nc3c2)CCCC4)c1
0.1%	CCn1c(SCc2ccc(F)cc2)nnc1C1CCN(S(=O)(=O)c2ccc(OC)cc2)CC1
-7.5%	CCCCNc1nc(C)nc2c1nc(C)n2CCC
-12.4%	CC(C)(C)NC(=O)C(=O)NNC(=O)COc1ccccc1
-5.2%	COc1ccc(CN(C(=O)c2nsc(Cl)c2Cl)C(C(=O)NC2CCCC2)c2ccc(OC)cc2)cc1 (configuration not stated)
-7.3%	COC(=O)c1cn(C(=O)c2ccccc2F)nc1N
-9.1%	Cc1ccccc1/C=N/N1CCN(c2ccccc2)CC1
-10.4%	Cc1cc(NS(=O)(=O)c2ccccc2)c([N+](=O)[O-])cc1C
-9.8%	COC(=O)c1ccc(COc2cc(O)c3c(c2)OC(C)(C)CC3=O)cc1
-11.8%	COc1ccc(-n2cnnc2SCC(=O)Nc2cc(S(=O)(=O)N3CCCCC3)ccc2C)cc1
-18.0%	CCOC(=O)N1CCN(C(=O)c2ccccc2NC(=O)c2ccc(OC)cc2)CC1
-4.3%	COC(=O)CC1C(C)(C)C(O)C2CC3=C4CC(O)OC(c5ccoc5)[C@]4(C)CCC3[C@@]1(C)C2=O (some centres not stated)
?	O=C(c1ccc(=O)oc1)N1CCCc2ccccc21
-13.6%	CCc1cccc(CC)c1C(O)c1cccnc1 (configuration not stated)
-14.2%	CC(=O)Nc1ccc(C(=O)CSc2nnc(C)o2)cc1
?	CC1CCN(C(=O)COC(=O)c2cc3ccccc3cc2O)CC1
-4.5%	O=C(C[n+]1ccccc1)Nc1nc2ccccc2s1
?	O=C(COC(=O)CCCNC(=O)c1ccc(Cl)cc1)NCc1ccccc1Cl
28.2µM*	Cc1cc(N2CCN(C/C=C/c3ccccc3)CC2)n2ncnc2n1
?	COc1ccc(-c2nsc(C(=O)N(c3ccc(F)cc3)C(C(=O)NC3CCCC3)c3ccc(OC)cc3)c2N)cc1 (configuration not stated)
-0.5%	CC(C)(C)c1ccc(COC(=O)CNC(=O)CNC(=O)Cc2ccccc2)cc1
-17.8%	CC(C)c1nnc(NC(=O)c2cccnc2)s1
-13.8%	CCN1CCN(c2ccc(NC(=O)c3cccnc3)cc2Cl)CC1
-13.4%	CCOC(=O)N1CCC(Nc2c(OCC)c(=O)c2=O)CC1
-15.0%	COC(=O)c1cc(Cl)c(NS(=O)(=O)c2ccccc2)cc1OC
14.1µM*	CC(C)(C)CC(=O)Nc1ccc(Nc2ccccc2)cc1
-6.5%	O=[N+]([O-])c1ccc(Cl)cc1NCCCN1CCOCC1
?	CCN(CC)CCCC(C)n1c(-c2ccccc2)nc2c(N(CCOC)CCOC)nc(C)nc21 (configuration not stated)
-22.9%	N#C/C(=C(/O)C(Cl)c1ccccc1)c1nc2ccccc2s1 (configuration not stated)
-10.5%	CCC(C)NC(=O)Cn1c(=O)n(CCCC(=O)NCc2ccccc2Cl)c(=O)c2ccccc21 (configuration not stated)
?	Cc1nc(NC(=O)CC(C)C)sc1-c1csc(Nc2ccc(Cl)cc2Cl)n1
-2.0%	Cc1ccccc1NC(=O)CSc1nnc(Cc2cccn2C)n1-c1ccc(F)cc1
-10.2%	COc1ccc(/C=N/Nc2nc(-c3ccc(Cl)cc3)cc(C(F)(F)F)n2)cc1OC
-16.3%	COc1ccccc1NCC(=O)N/N=C/C=C/c1ccccc1
-19.6%	CC(/C=C/c1ccc2c(c1)OCO2)=N/NC(=O)c1ccc(C)nc1
-5.0%	CCOC(=O)CCSc1nc(C)cc(C(F)(F)F)c1C#N
-2.7%	COC(=O)CC(NS(=O)(=O)c1cccs1)c1ccccc1Cl (configuration not stated)
-25.9%	CCCOc1ccc(C(C)=O)cc1CSc1nc(O)cc(=O)[nH]1
-16.7%	COC1(OC)N=C(NC(=O)Nc2ccccc2)C2(C#N)C(c3ccccc3)C12C#N (configuration not stated)
-9.1%	O=C(c1ccc2c(c1)OCO2)N(Cc1cccs1)C1(C(=O)NC2CCCCC2)CCCCC1

The list goes on:
HPGD inh	SMILES
?	COC(=O)CNC(=O)COC(=O)c1cc(Cl)cc(Cl)c1N
-21.4%	CC1CCN(C(=O)CNC(=O)Cn2ccc3ccccc3c2=O)CC1
1.7%	O=C(NCCN1CCN(c2ccccc2F)CC1)C1c2ccccc2C(=O)N2CCc3ccccc3C12 (configuration not stated)
-0.3%	CC/C(=N\NC(=O)CSCc1ccccc1Cl)c1ccc2c(c1)OCCO2
-13.5%	CCCOc1ccc(CNC(=S)N/N=C/c2ccc([N+](=O)[O-])cc2)cc1
-8.4%	Cc1ccc(NC(=O)O[C@@H]2C(=O)c3cc(Br)ccc3O[C@H]2c2ccc3c(c2)OCO3)cc1Br
-11.2%	CCN(CC)S(=O)(=O)c1cc(C(=O)Nc2ccccc2C(=O)O)ccc1OC
14.1µM*	Cc1ccccc1-c1cc(Nc2ccc(F)cc2)ncn1
-11.1%	CS(=O)(=O)NCCSCc1ccc(Cl)cc1
-24.2%	CCCC1=NN2C(=N)/C(=C\c3cc(C)n(-c4cc(C)cc(C)c4)c3C)C(=O)N=C2S1
-3.7%	CC1=CC(=C(C#N)c2nc3ccccc3s2)C=C(C)N1Cc1ccco1
-20.4%	c1ccc(CN(Cc2ccco2)C(c2ccncc2)c2nnnn2C2CCCC2)cc1 (configuration not stated)
-11.5%	CN(C(=O)c1ccccc1C(=O)c1ccccc1)C1CCS(=O)(=O)C1 (configuration not stated)
-15.8%	CN1CC(=O)N/C1=N\C(=O)Nc1ccc2c(c1)N(C)C(=O)CS2
-8.8%	CCC(C)(C)NC(=O)c1ccc(Sc2nncn2C)c([N+](=O)[O-])c1
-7.4%	COC(=O)c1cc(NC2c3ccccc3C(=O)N2c2ccc(Cl)cn2)cc(C(=O)OC)c1 (configuration not stated)
-6.0%	C=CCn1c(C)c(C(C)=O)c(N2CCCC2)nc1=S
-18.3%	Cc1ccc(C(=O)NCCN(C)C)c(C)c1
-8.6%	COC(=O)c1[nH]c(C)c(/C(O)=C2\C(=O)C(=O)N(CCN(C)C)C2c2ccc(C)o2)c1C (configuration not stated)
-10.7%	COc1ccc(NS(=O)(=O)c2ccc(OCC(=O)N3CCCC3)cc2)cc1
-10.4%	Cc1ccccc1NC1C=CS(=O)(=O)C1 (configuration not stated)
-8.1%	CSc1nnc(Cn2c(=O)sc3ccccc32)n1C
-4.9%	O=C(CN1C(=O)c2ccccc2C1=O)NCC1COc2ccccc2O1 (configuration not stated)
-3.2%	Cc1ccc(S(=O)(=O)N2CCC(C(=O)N[C@H](C(=O)NCc3ccco3)C(C)C)CC2)cc1
-10.3%	CC(C)Cn1nnc2c(=O)oc3ccccc3c21
-15.9%	CCOC(=O)Cc1csc(NS(=O)(=O)c2ccc3ccccc3c2)n1
-19.9%	COCCNC(=O)C(c1ccc(C)o1)N(Cc1ccco1)C(=O)c1snc(C(N)=O)c1N (configuration not stated)
-8.6%	CC(c1ccccc1F)n1cc(C(=O)NCCCn2ccnc2)nn1 (configuration not stated)
-24.7%	N#Cc1c(NC(=S)NC(=O)c2ccccc2)sc2c1CCC2
-12.4%	COC(=O)c1cc(Br)c(=O)n(CC(C)C)c1
-15.1%	O=c1[nH]c(N2CCN(c3ccccc3)CC2)nc2c1CCC2
-1.2%	COc1ccc(OC)c(S(=O)(=O)Nc2cnc3ccccc3c2)c1
-3.0%	C/C(=N\NC(N)=S)C12CC3CC(CC(C3)C1)C2
-2.0%	CCC(C)(C)n1nnnc1C(c1ccccc1OC)N1CCSCC1 (configuration not stated)
-9.6%	O=C(c1cc(C(F)(F)F)cc(C(F)(F)F)c1)N1CCC[C@@]2(CCN(c3ccccc3)C2)C1
?	COc1ccc(-c2cc3nc(C)c(CCC(=O)NCc4ccco4)c(C)n3n2)c(OC)c1
-14.2%	CCn1c(/C=C/N(C)c2ccccc2)[n+](CC)c2ccc(Cl)cc21
25.1µM*	Cc1ccc(S(=O)(=O)Nc2nc3ccc(S(C)(=O)=O)cc3s2)cc1
-18.0%	Cc1cc(C)n(CCC(=O)N/N=C/c2ccc(O)cc2O)n1
0.8%	CCOC(=O)c1c(NC(=O)CSc2nnnn2-c2ccc3c(c2)OCO3)sc(C)c1C
-4.4%	COc1ccc(N2CCN(Cc3nc4c(c(=O)n(C)c(=O)n4C)n3C(C)C(C)=O)CC2)cc1 (configuration not stated)
-5.4%	CCCCn1c(SCC(=O)N2CCOCC2)nnc1-c1ccoc1C
-10.7%	O=C(NCc1ccccc1)c1ccc2c(=O)n(CCCN3CCCC3=O)c(=S)[nH]c2c1
-6.9%	COc1cc(NC(=O)CN(C)C2CCCCC2)c(C)cc1[N+](=O)[O-]
?	CCOCCCNC(=O)c1c[nH]c2ccc(S(=O)(=O)Nc3cccc(OC)c3)cc2c1=O
-10.3%	Cc1nc(NCCCN2CCOCC2)c2oc3ccccc3c2n1
17.8µM*	C/C=C/CSc1nc2c(c(=O)[nH]c(=O)n2C)n1Cc1ccc(C)cc1
10µM*	Nc1c(-c2ccccc2)cnn1-c1cccc(C(F)(F)F)c1
7.94µM*	COc1ccc(N2CSC3=C(C#N)C(c4cc(OC)ccc4OC)CC(=O)N3C2)c(OC)c1 (configuration not stated)
-1.1%	CCC(CC)C(=O)NCCc1ccc(OC)c(OC)c1
0.9%	COC(=O)CSc1nnc(CNS(=O)(=O)c2ccc(Cl)cc2)n1C
4.7%	CCOc1ccc(NC(=O)CSc2nc(C)cc(C)n2)cc1
-13.1%	O=C(CCN1CCCCC1)c1csc2ccccc12
-1.5%	Cc1ccc(NC(=O)CCNS(=O)(=O)c2ccc3c(c2)oc(=O)n3C)c(C)c1
-16.5%	CCCCC(=O)Nc1cccc(NC(=S)NC(=O)COc2ccccc2Cl)c1
-1.9%	CCCc1[nH]nc2c1C(C1CC=CCC1)C(C#N)=C(N)O2 (configuration not stated)
-10.1%&-10.0%	O=C(OCCN1CCCCC1)c1c[nH]c2ccccc12
-17.8%	Cc1onc(-c2ccccc2Cl)c1-c1nc(-c2ccccn2)no1
?	Cc1ccc(-c2cc(C(F)(F)F)c(C#N)c(SCCC#N)n2)o1
?	O=C(N/N=C/c1cn(-c2cccs2)nc1-c1ccccc1)c1ccccc1Br

Continued:
HPGD inh	SMILES
0.5%	CCCn1c(C)nc2c(NCCOC)nc(C)nc21
-6.1%	CC(C)COc1ccc(-c2nnn(CC(=O)N3CCCC3)n2)cc1
-12.4%	O=C(Cc1cccc2ccccc12)Nc1nc2ccccc2[nH]1
-20.5%	CCOc1cccc(C(=O)Nc2cccc(-c3nnc(-c4ccccc4)o3)c2)c1
-6.9%	Cc1ccc(NCC(=O)N/N=C/c2ccc(OC(=O)c3ccco3)cc2)cc1
3.9%	CC(C)NC(=O)CSc1nnc(-c2ccco2)n1N
-3.7%	O=C(NCN1CCCCC1)c1cccnc1
-1.1%	N/C(Cc1ccc(Cl)cc1Cl)=N\OC(=O)Cc1ccccc1
